Assay outcomes: PubChem BioAssay, National Center for Advancing Translational Sciences (NCATS)
VACV Venus inh: qHTS for Stage-Specific Inhibitors of Vaccinia Orthopoxvirus: Venus Reporter Primary qHTS | Vaccinia virus Venus reporter expression, fluorescence | Potency, µM (doses to about 36.5 µM), for the others: at the highest dose activity change, negative = inhibition, most hits filed as inhibitors | actives 0.46% (n = 330,000) | AID 720580, 2013; active means well fitted inhibition curve with a large enough effect; inconclusive means small, poorly fitted or top-dose-only effect; inactive means no such curve, though single readings can be large or run the other way; tested in A549 cells; further: nearly all actives have a fitted effect of over 30% in size; inactives centre near -10
Vaccinia mCherry: qHTS for Stage-Specific Inhibitors of Vaccinia Orthopoxvirus: mCherry Reporter Primary qHTS | Vaccinia virus mCherry reporter infection, fluorescence; about a quarter of the inactives have no number | Potency, µM (series often up to 36.5 µM), for the others: at the top dose activity change, negative = inhibition, actives largely listed as inhibitors | actives 0.63% (n = 310,000); active = well fitted inhibition curve with a large enough effect; inconclusive = small, poorly fitted or top-dose-only effect; inactive = no such curve, though single readings can be large or run the other way; tested in A549 cells; further: nearly all actives have a fitted effect of over 35% in size; inactives centre near -10
Active calls of the source: *; i = inactive; u = inconclusive; x = no result given; [ ] = remark or other dose. On the % scale 0 is the no-effect control and ±100 the full control effect; potency means the concentration at half of the fitted maximal effect.

Values run as follows: VACV Venus inh	Vaccinia mCherry
COC(=O)c1ccccc1COn1c(=O)c[n+]([O-])c2ccccc21
    11.2%	-10.7%
CCCCSc1nnc(CSc2ncccn2)n1C
    -11.0%	-3.5%
O=C(COc1coc(CN2CCCc3ccccc32)cc1=O)Nc1ccccc1
    -9.7%	-13.2%
CSc1nnc(NC(=O)c2cc3ccccc3oc2=O)s1
    -12.5%	-8.2%
Cc1ccc(S(=O)(=O)c2nc(Cc3ccccc3)oc2N2CCOCC2)cc1
    5.6%	-14.4%
CCOc1ccc(Nc2cc(C)nc3nncn23)cc1
    -7.6%	-1.5%
Cc1ccccc1NC(=O)CN1C(=O)N/C(=C\c2cccn2-c2cccc(C(=O)O)c2)C1=O
    -0.7%	-3.0%
COC(=O)c1c(NC(=O)CSc2nnnn2C)sc(C)c1C
    -5.3%	i
O=C(CN1C(=O)C(=O)N(Cc2ccccc2)C1=O)c1ccc[nH]1
    -5.4%	-5.8%
CCOc1ccc(Br)cc1C(=O)Nc1ccc(C(=O)NCC(C)C)cc1
    -18.3%	-21.7%
CCOC(=O)c1c(C)oc2nc(C)nc(NCc3cccc(OC)c3)c12
    -6.9%	-10.9%
COc1ccccc1C(NC(C)=O)c1cc(Cl)c2cccnc2c1O (stereo not given)
    u	u
CC(C)C[C@H]1CN(CCCC[C@H]2CNC(=O)C(=O)N2CCC2CCCCC2)C(=O)C(=O)N1CCC1CCCCC1
    u	u
Nc1ccc(C#Cc2ccc3c(=O)c4ccccc4oc3c2)cc1
    u	u
Cc1cn(CC(=O)N2CCN(c3ccccn3)CC2)c(=O)[nH]c1=O
    2.3%	-17.7%
Cc1cccc2c(Nc3ccc4c(c3)OCO4)nc(CN3CCC(N4CCCCC4)CC3)nc12
    -11.6%	i
CCc1c(C)sc(NC(=O)c2noc(C)c2[N+](=O)[O-])c1C#N
    -17.7%	-3.0%
CC1CCCC(C)N1C(=O)COC(=O)c1ccccc1O (stereo not given)
    -16.3%	i
CC(=O)c1ccc(Nc2nc(=O)c3cccnc3s2)cc1
    -25.1%	u
C(#CCN1CCCC1)CN1CCCC1
    -6.2%	i
CC(=O)c1cccc(NC(=O)C(C)OC(=O)C2=NNC(=O)CC2)c1 (stereo not given)
    -10.2%	i
COCCNC(=O)CN1C(=O)CSc2cc(S(=O)(=O)N3CCCCCC3)ccc21
    -15.0%	8.0%
N#Cc1c(/N=C/c2ccccc2)oc(-c2ccccc2)c1-c1ccccc1
    3.6%	-14.3%
COc1cc(C(=O)Nc2cccc(-c3nc4cc(C)cc(C)c4o3)c2)cc(OC)c1OC
    -3.4%	i
CC(C)(C)C(=O)NC1CCN(S(=O)(=O)c2cccc(C(F)(F)F)c2)CC1
    -7.3%	-14.9%
Cc1cc2c(cc1S(=O)(=O)N(C)Cc1ccccc1)OCC(=O)N2
    -24.5%	-11.8%
NC(CO)c1csc(NC(=O)Nc2ccccc2Cc2ccccc2)n1 (stereo not given)
    -5.5%	-1.8%
N#Cc1c(NC(=O)CCCl)sc2c1CCCCC2
    -14.2%	-22.1%
CN(C)[C@@H](CO)c1nnc([C@H](Cc2ccc(O)cc2)NC(=O)C2CCNCC2)o1
    -1.1%	-23.8%
CC(C)CN1CCC(C(=O)NCC2CCCO2)CC1 (stereo not given)
    -6.2%	x
Cc1cc(-n2c(C)cc(C(=O)CCl)c2C)no1
    u	-28.3%
O=c1ccccn1Cc1c(Cl)cccc1Cl
    -5.8%	-1.1%
CCCC1CCc2c(sc(NC(=O)c3cccs3)c2C(N)=O)C1 (stereo not given)
    -8.9%	-0.2%
O=C(CCS(=O)(=O)CCN1CCOCC1)NCNC(=O)CCS(=O)(=O)CCN1CCOCC1
    -10.6%	i
CCOc1ccc(Nc2nc(C)c(NC(=O)c3ccc(C)cc3)c(Nc3ccc(OCC)cc3)n2)cc1
    u	u
N=C(N)n1c(N)nc2ccccc2c1=O
    -10.9%	i
Cc1nn(CC(=O)Nc2cccnc2)c(=O)c2ccccc12
    6.3%	i
CCC(C)Sc1cc(-c2nc3ccc(C)cn3c2NCc2ccccc2)ccc1OC (stereo not given)
    u	10µM*
COc1cc2c(cc1NC(=O)/C=C/c1ccc([N+](=O)[O-])cc1)oc1ccccc12
    3.0%	8.1%
O=C(NCc1ccco1)N1c2ccccc2Sc2ccccc21
    3.3%	i
Cc1ccccc1C(=O)O/N=C(\N)c1ccccc1
    -2.0%	0.3%
CCCc1nc2ccccc2n1C(CC)C(=O)NC(C)(C)C (stereo not given)
    0.0%	-1.3%
COc1ccc(C)cc1S(=O)(=O)NC1CCCC1
    -12.0%	-14.3%
CC(=O)Nc1ccc(NC(=O)c2cc(-c3cccs3)on2)cc1
    -6.6%	-1.0%
CC(C)[C@@H]1Cc2[nH]n(C)c(=O)c2[C@H](c2ccc(F)cc2)O1
    -3.3%	33.9%[activator]
Cc1cc2ccccn2c1C(=O)c1ccc([N+](=O)[O-])o1
    u	u
Cc1cccc(NC(=O)CCOc2ccccc2)c1
    -0.9%	x
COc1ccc(NC(=O)c2cc(-c3ccc(F)cc3OC)n[nH]2)c(C)c1
    -10.2%	i
Cc1cccc(OCC(=O)NCC2(N3CCN(C)CC3)CCCCC2)c1C
    -12.1%	-8.2%
CCN(CC)CCSc1nnc2c3cc(F)ccc3n(CC)c2n1
    -15.1%	-10.8%
Cn1cnc2c1c(=O)[nH]c(=O)n2C
    -3.0%	-9.9%
Fc1cccc(Cl)c1CN1CCN(c2nc3ccccc3s2)CC1
    -19.6%	-6.2%
Cc1ccc(CNC(=O)Cc2csc3ccccc23)cc1
    -1.7%	-5.8%
CCc1ccccc1OCC(=O)Nc1cccc(S(=O)(=O)N2CCCC2)c1
    -23.4%	-4.4%
N#CC1(NC(=O)CN2C(=O)NC(Cc3c[nH]c4ccccc34)C2=O)CCCCC1 (stereo not given)
    -21.6%	u
CC(C)COP(=O)(OCC(C)C)C(Nc1ccccc1)c1ccccc1 (stereo not given)
    -3.5%[7.34 µM]	-11.5%[7.34 µM]
O=C(CCC1CCCC1)NNC(=O)c1cc2ccccc2cc1O
    -9.2%	-22.4%
Cc1ccc(S(=O)(=O)NCCC(=O)OCC(=O)N(Cc2ccccc2)C(C)(C)C)cc1
    -3.7%	i
COc1cc(CCN2C(=O)c3cccc4cccc(c34)C2=O)c(S(=O)(=O)N2CCC(C)CC2)cc1OC
    -1.3%	-4.8%
Cc1ccc2cc(C#N)c(SCC(=O)NNC(=O)Cc3ccccc3)nc2c1
    -17.6%	-10.7%

Going on with the list:
Molecule | VACV Venus inh | Vaccinia mCherry
COc1ccccc1Cc1c(-c2cccc(Br)c2)nc2ccc(Br)cn12 | -6.4% | -1.7%
O=C(Nc1ccc(Cl)c(Cl)c1)C1CCN(C(=O)c2ccco2)CC1 | -19.2% | -12.6%
COc1ccc(CNC(=O)Cn2c(SCC(=O)Nc3ccc(C)c(C)c3)nc3ccccc32)cc1 | u | u
O=C(NCc1ccc(F)cc1)c1cc2c(s1)-c1ccccc1SC2 | -4.1%[7.34 µM] | -6.6%[7.34 µM]
CN(C)N1C(=O)c2c(Cl)c(Cl)c(Cl)c(Cl)c2C1=O | -14.7% | -22.5%
CN(C)N1C(N)=C(C#N)C(c2cccnc2)C2=C1CC(C)(C)CC2=O (stereo not given) | -13.4% | x
CCn1cc(CN2CCCC(C(=O)Nc3cccc(-n4cccn4)c3)C2)cn1 (stereo not given) | -14.5% | -20.7%
O=C(O)CCCNS(=O)(=O)c1ccc(Br)s1 | 7.6% | i
CC1(C(=O)NS(=O)(=O)C2CC2)CCN(C(=O)c2ccc(F)c(Cl)c2)C1 (stereo not given) | -24.2% | -14.3%
COCCNC(=O)Cn1nc(C)c([N+](=O)[O-])c1C | -9.5% | -10.0%
CN(C)CCNc1cccc2sc3ccc(O)cc3c(=O)c12 | u | u
CCCN1CNc2c(c(=O)[nH]c(=S)n2CCc2cc(C)cc(C)c2)C1 | -23.5% | i
COc1cc(/C=C(\C#N)C(=O)NCC2CCCO2)ccc1OC(C)C (stereo not given) | -15.5% | i
CCOc1ccc(OCCNCc2ccc(OC(C)C(=O)N(C)C)c(OCC)c2)cc1 (stereo not given) | -6.7% | -12.3%
CC1(OC(=O)CCc2ccccc2)C(=O)C=C2C=C(c3ccc(C#N)cc3)N(CCc3ccccn3)C=C2C1=O (stereo not given) | -12.0% | i
C=CCn1c(=NC(=O)C2CCCCC2)sc2cc(NC(C)=O)ccc21 | -10.1% | -10.5%
CC(C)CCNC(=O)C1(c2cccs2)CCOCC1 | -5.8% | -14.7%
Cc1ccccc1NC(=O)c1ccc(NS(=O)(=O)c2cc(C(C)(C)C)cc(C)c2C)cc1 | u | u
O=C(NNC(=S)NC(=O)c1ccco1)c1ccc(NC(=O)c2ccccc2)cc1 | -0.1% | -9.7%
O=C(Cc1ccccc1)N/N=C/c1cccnc1 | -11.8% | -12.5%
O=C1C=C(c2ccccc2)C(c2ccccc2)C1 (stereo not given) | -5.4% | i
CCOC(=O)C(NC(C)=O)C(=O)Nc1c(C)cccc1C (stereo not given) | 10.6% | i
N=c1ccn(Cc2ccc(Cl)c(Cl)c2)cc1 | u | x
O=C(/C=C/c1ccccc1)Nc1ccc(Cl)cn1 | -14.7% | -8.0%
N#CCSc1nnc(-c2ccc(F)cc2)n1N | -4.3% | i
CCNC(=O)N1C(=O)C2(OCCO2)c2cc(Br)ccc21 | -11.2% | -19.4%
O=C(CSc1nnc(-c2ccccc2F)n1C1CC1)Nc1cccnc1Cl | -18.6% | -2.8%
CCOC(=O)CNC(=O)C12CC3CC(C1)CC(c1ccc(C)cc1)(C3)C2 | -7.0% | -11.8%
O=C(CNC(=O)c1ccc2c(c1)OCO2)N/N=C/c1cccc([N+](=O)[O-])c1 | 8.4% | -14.9%
Cc1ccc(S(=O)(=O)NNC(=O)CCCCC(=O)NNS(=O)(=O)c2ccc(C)cc2)cc1 | -18.7% | -11.8%

By substructure, the compounds so far containing a thiophene ring, fused or not.
Molecule | VACV Venus inh | Vaccinia mCherry
COC(=O)c1c(NC(=O)CSc2nnnn2C)sc(C)c1C | -5.3% | i
CCc1c(C)sc(NC(=O)c2noc(C)c2[N+](=O)[O-])c1C#N | -17.7% | -3.0%
N#Cc1c(NC(=O)CCCl)sc2c1CCCCC2 | -14.2% | -22.1%
CCCC1CCc2c(sc(NC(=O)c3cccs3)c2C(N)=O)C1 (stereo not given) | -8.9% | -0.2%
CC(=O)Nc1ccc(NC(=O)c2cc(-c3cccs3)on2)cc1 | -6.6% | -1.0%
Cc1ccc(CNC(=O)Cc2csc3ccccc23)cc1 | -1.7% | -5.8%
O=C(NCc1ccc(F)cc1)c1cc2c(s1)-c1ccccc1SC2 | -4.1%[7.34 µM] | -6.6%[7.34 µM]
O=C(O)CCCNS(=O)(=O)c1ccc(Br)s1 | 7.6% | i
CC(C)CCNC(=O)C1(c2cccs2)CCOCC1 | -5.8% | -14.7%

Carrying on.
Molecule | VACV Venus inh | Vaccinia mCherry
CC12CC(O)C3C(CCC4=CC(=O)CCC43C)C1CCC2=CCO (stereo not given) | -9.2% | i
O=C(O)c1ccc(COCC(F)(F)C(F)F)o1 | -11.7% | -20.3%
Cc1csc(-c2cnn(-c3ccccc3)c2NC(=O)c2cccc(F)c2)n1 | -5.4% | x
CC1CCN(S(=O)(=O)c2ccc(NC(=O)CCNC(=O)c3ccc(Cl)cc3)cc2)CC1 | 7.5% | u
Cc1cccc(N2CCN(C(=S)c3ccc(-c4ccccc4[N+](=O)[O-])o3)CC2)c1 | -29.6% | -14.3%
Cc1c(Cl)cccc1NC(=O)CN1C(=O)COc2ccc(S(=O)(=O)Nc3ccccc3)cc21 | -19.8% | -27.1%
COc1ccc(C(C(=O)NC2CCCC2)N(C(=O)c2ccoc2C)c2ccc(C)cc2)cc1 (stereo not given) | -15.4% | -8.7%
S=c1[nH]cc(-c2ccccc2)n1-c1ccccc1 | -21.8% | -26.6%
Cc1ccc(-c2c3c(=O)n(C)c(=O)n(C)c3c3n2-c2ccccc2NC3c2ccc(C)cc2O)cc1 (stereo not given) | -38.9% | u
Cc1ccc(S(=O)(=O)N2CC(=O)NC(=O)C2)cc1 | 1.4% | 3.0%
CN(Cc1ccccc1)C(=O)COC(=O)c1ccc(Cl)c(N)c1 | -11.5% | i
C1CCC(CNc2c3c(nc4nnnn24)CCCC3)CC1 | -28.2% | i
CCCCN(C(=O)c1ccc([N+](=O)[O-])s1)c1c(N)n(CCCC)c(=O)[nH]c1=O | -25.2% | -21.1%
Cc1cccc(Oc2nc3ccccn3c(=O)c2/C=C(\C#N)C(=O)NC2CCS(=O)(=O)C2)c1 (stereo not given) | -9.3% | 0.0%
O=C(COCC(=O)N1CCOCC1)N1CCOCC1 | -13.8% | i
COc1ccc(C(=O)NN)cc1 | -11.5%[7.34 µM] | -7.0%[7.34 µM]
Cc1ccc(-n2c(=S)[nH]c3ccc(C)cc3c2=O)cc1 | -7.5% | -7.2%
O=C1C2CCCN2C(=O)N1CCCN1CCN(c2cccc(Cl)c2)CC1 (stereo not given) | -12.1% | -26.1%
CCCCOc1ccc(Cc2c(Cl)nc(SC)nc2N2CCOCC2)cc1 | -13.6% | i
